# Bioassay records as filed in PubChem BioAssay.
# NPYLR7 agonist – activates Aedes aegypti NPYLR7 receptor; HEK293T NPYLR7/Galpha15, GCaMP6s calcium fluorescence; activation, % at 10 µM; 270,000 compounds, 0.15% hits; AID 1259423; in the data active = activation above about 40%;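 note: 0% = vehicle and 100% = reference agonist at the receptor; some compounds past the cut are filed as inactive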
# NPYLR7 agonist max-min – further read-out of NPYLR7 agonist, marked with its call; activation, %; measured here: Max-Min RFU normalised activation; some inactives read as strong as hits;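 span of the calcium signal over five minutes; 0% = vehicle and 100% = native peptide agonist; compound fluorescence can raise it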
# * = called active by the depositor; & = joins results of further samples. This is a subset; count on the stated rates, not on these rows.
SMILES,NPYLR7 agonist,NPYLR7 agonist max-min
CCc1cc(=O)n2nc(N3CC(c4nc5ccccc5[nH]4)C3)sc2n1,4,0
CCn1nnc2c(N3CCN(CC(N)=O)CC3)ncnc21,-1,6
COc1ccc(CCN(C)S(=O)(=O)c2ccc(OC)c(N3CCN(C(=O)c4ccc([N+](=O)[O-])o4)CC3)c2)cc1OC,-1,14
Cc1ccc(C(=O)NC(C)c2noc(Cc3ccccc3)n2)s1 (centres undefined),2,2
COc1ccc(S(=O)(=O)NC2CC(=O)N(c3ccccc3)C2)cc1C (centres undefined),9,3
COc1ccc2c(c1)N(C(=O)c1cccc(-n3ccnc3)c1)CC(C)O2 (centres undefined),-4,14
CCn1cc(Br)cc1C(=O)N(C)CC(F)(F)F,-1,1
CCSCCC(C)NC(=O)N1CCOCC1CC (centres undefined),9,6
COc1ccc(-n2c(Cc3ccccc3)nnc2SCCCCC(=O)NCCc2ccc(Cl)cc2Cl)cc1,-1,6
Cc1nnsc1C(=O)N1CCC(n2nccc2NC(=O)CCCc2ccccc2)CC1,7&-5,5&-7
CCOC(=O)C1CCCN(C(c2ccc(OC)c(OC)c2)C2Sc3nc(CC)nn3C2=O)C1 (centres undefined),-2,16
Cc1ccc2nc(SCCc3ccccc3)nc(=O)n2c1,5,2
CCOC(=O)CCC(=O)N(CCOC)Cc1c(C)nn(-c2ccccc2)c1N1CCN(CC)CC1,0,1
CN(Cc1cccc2cnccc12)C(=O)c1ccc(-n2cnnc2)cc1,-3,-14
CCC(Oc1ccccc1)C(=O)N1CCC2(CC1)CN(CC(=O)OC)C(=O)O2 (centres undefined),-1,16
O=C1NCN(c2ccccc2)C12CCN(CCCC(c1ccc(F)cc1)c1ccc(F)cc1)CC2,0&0,-5&-26
O=C(CSc1nc(=O)n(CCO)c2c1CCCC2)N1CCCCC1,-4,-12
CC(C)CN1CCN(C(=O)CCc2nnc(Cc3c[nH]c4ccccc34)o2)[C@@H](C)C1=O,5,4
Cc1cccn2c(CNCc3ccccc3OC(F)(F)F)c(C(=O)N3CCCCC3)nc12,3,4
COc1cc(CN(C)C(=O)c2c(C)noc2-c2cccs2)cc(OC)c1OC,20,7
O=C(CCn1nnnc1CN1CCOCC1)N1CCN(Cc2ccccc2)CC1,2,-2
COCCC1CCCCN1Cc1nc(CCC(C)C)no1 (centres undefined),26,7
Cc1cccc(CSc2nnc(CNC(=O)c3cc(Cl)cc(Cl)c3)n2-c2ccc(Cl)cc2Cl)c1,16,17
Cn1c(=O)[nH]c(=O)c2c1nc(N1CCN(Cc3ccccc3F)CC1)n2Cc1ccccc1,-4,4
CC(C)(C)c1ccc(C(=O)N2CCN(c3cccc(Cl)c3)CC2)cc1,-1,-1
COC(CNC(=O)C(=O)N(C)c1ccc(C)cc1)c1ccccc1 (centres undefined),8,3
O=C(NCc1ccccn1)c1cnn(-c2ccccc2)c1C(F)(F)F,5,7
O=C(CSc1nnc(NC(=O)c2cccc3ccccc23)s1)Nc1nccs1,-6,-11
COc1ccc(/C=N\Nc2nc(N3CCCC3)nc(N3CCCC3)n2)c(OC)c1,-9,-13
CCSc1nnc2c(n1)OC(c1ccc(C(C)C)cc1)Nc1ccccc1-2 (centres undefined),-10,-14
Cc1ccc(CNC(=O)CSc2ccc(NC(=O)C3CC3)nn2)cc1,0,0
COC(=O)c1cccn1C1CCN(C(=O)Cc2ccc(C(F)(F)F)cc2)CC1,5,3
CCC1C(=O)NCCN1C(=O)C1CC1c1ccccc1C(F)(F)F (centres undefined),5,0
O=S(=O)(Nc1ccccc1-c1nnc2n1CCCCC2)c1cccc(C(F)(F)F)c1,7,7
Cc1nn(C(C)(C)C)c(C)c1S(=O)(=O)Nc1ccc(C#N)cn1,-32,-32
CC(=O)c1c(C)[nH]c(C(=O)N2Cc3ccccc3CC2C(N)=O)c1C (centres undefined),-2,-6
COc1ccc(CCN(C)C2CCCN(Cc3ccc4nonc4c3)C2)cc1OC (centres undefined),3,0
O=C(NC1CCCCNC1=O)c1cc2n(n1)CCN(Cc1c(F)cccc1Cl)C2=O (centres undefined),16,2
CCN1CCN(C(=O)CCN(CC(C)C)c2nc(-c3cccs3)nc3ccccc23)CC1,0,5
COc1cc(/C=C/c2nc(C(=O)O)ccc2C#N)cc(OC)c1,0,-1
CC(=O)C(C)n1c(=O)c2c(nc3n(-c4ccc(C)c(C)c4)c(C)cn23)n(C)c1=O (centres undefined),-1,-3
COc1ccc(-c2cc(CNC(=O)/C=C\c3ccc(OC)c(OC)c3)no2)cc1,1,0
O=C1CCC([N+](=O)[O-])C(c2cc(Br)ccc2F)N1 (centres undefined),-1,17
O=C(O)c1cccnc1Sc1ccccc1F,-2,-1
COCCN(CC(=O)N(Cc1cccn1Cc1ccc(F)cc1)C1CCCCC1)C(=O)c1ccc([N+](=O)[O-])cc1,16,20
CC(=O)c1sc2nc(-c3ccc(F)cc3F)ccc2c1N,-4,-11
CC(C)(C)Nc1c(-c2ccc(Cl)cc2)nc2c(OCc3ccccc3)cccn12,-1,6
CC(C)(C)NC(=O)Cn1c(C(F)(F)F)nc2ccccc21,6,8
CCN(CC)C(=O)[C@@H]1C[C@H](N)CN1C(=O)CCc1cc(Cl)no1,-1,-3
CC1c2cccn2CCN1C(=O)CC(O)(c1nccn1C)C(F)(F)F (centres undefined),1,0
COc1cc(NS(=O)(=O)c2cccs2)cc(OC)c1,12,8
O=C(c1ccccc1)N1N=C(c2ccc(Br)cc2)CC1c1ccc([N+](=O)[O-])cc1 (centres undefined),1,-3
CCc1nc(-c2ccccc2)nc(N2CCN(C(=O)c3ccccc3Cl)CC2)c1Cc1cc(C)ccc1C,3,13
CC(C)(NC(=O)c1scnc1Cl)c1ccc(Br)cc1,3,4
Cc1cc(I)ccc1NC(=O)C1CCCN1Sc1ccccc1[N+](=O)[O-] (centres undefined),-4,-7
COc1cc(CN(C)CC2CCN(Cc3ccc(C)o3)CC2)ccc1F,3,0
CC(=O)Nc1ccnn1C1CCN(Cc2c(F)cccc2Cl)CC1,-2,-5
OC(CN1CCOCC1)Cn1c2ccccc2c2ccccc21 (centres undefined),-1,-2
CCSc1nnc2ccc(-c3ccc(CC)cc3)nn12,-17,-16
COc1cccc(CN2CCNC(=O)C2CC(=O)N2CCCC2)c1OC (centres undefined),11,5

# New compounds follow.
SMILES,NPYLR7 agonist,NPYLR7 agonist max-min
CCc1noc(CN(C)C(=O)/C=C/c2ccccc2OC(F)(F)F)n1,11,5
O=C(NC1CCN(C(=O)C2CC2)CC1)c1ccccc1F,1,0
O=C(O)Cn1cc(/C=C2/CSc3ccc(Cl)cc3C2=O)nn1,-1,-3
CC1(c2ccco2)NC(=O)N(CC(=O)Nc2cccc(C#N)c2)C1=O (centres undefined),-9,-11
Cc1cc(NC=C(Cl)C(=O)C(F)(F)F)n[nH]1,3,48
CN(C)CCn1c2c(c(SCC(=O)Nc3cccc(C(F)(F)F)c3)nc1=O)CCC2,-4,-9
Cc1cccc(-n2c(CNC(=O)c3ccco3)nnc2SCC(=O)Nc2nc3ccccc3s2)c1,-3,0
C1=CC(c2ccc(C=NNc3nc4ccccc4s3)s2)CC1 (centres undefined),16,15
COC(=O)c1ccc2c(c1)CC(CNC(=O)/C=C/c1ccccc1)O2 (centres undefined),3,4
O=C(/C=C/c1c(F)cccc1F)N1CCC(c2nnc3n2CCC3)CC1,0,-3
COc1ccc(C(O)(c2ccc(OC)cc2)c2ccc(CN(Cc3ccsc3)C3CC3)o2)cc1,0,5
Cc1c(C)c(C(=O)NCCN2CCOCC2)n(Cc2ccc(F)cc2)c1C,20,26
CCCCN(CC(=O)N(CCc1c[nH]c2ccccc12)Cc1ccc(F)cc1)C(=O)NCC,11,11
CCCCOc1ccc(S(=O)(=O)Nc2ccccc2C(=O)NC2CCCCC2)cc1,21,8
CN(C)CCCOc1ccc(-c2nnc3ccc(-c4cccc(C(F)(F)F)c4)cn23)cc1,9,-3
Cc1csc(CNC(=O)c2coc(COc3cccc(C(F)(F)F)c3)n2)n1,-2,-6
O=C(c1cnccn1)N(Cc1ccco1)c1ccc(Cl)cc1,6,5
COc1cccc(OCC2c3ccsc3CCN2C(=O)CN(CC2CCCO2)C(=O)c2ccc(F)cc2)c1 (centres undefined),-2,6
O=C(NC(CCO)C1CC1)c1c(F)cccc1Br (centres undefined),1,1
Cc1cc(O)c(CN2CCOCC2)c2c1C(=O)/C(=C/c1cc3ccccc3o1)O2,28,26
CNC(=O)CNC(=O)Nc1ccc(Br)c(F)c1,2,4
Cc1ccc(-n2nc(C)c(=O)c(-c3ccccc3)c2NC(=O)c2ccco2)cc1C,3,-1
O=C(c1cc(-c2ccccc2)on1)N1CCCC(Nc2ccccc2)C1 (centres undefined),-4,-5
Nc1nc(Cl)cc(Oc2ccc([N+](=O)[O-])cc2)n1,0,0
CCOC(=O)C1=NN(C(C)=O)C2(CC(=O)N(c3ccc(I)cc3)C2=O)C1 (centres undefined),6,12
N#CC1C(=N)Oc2n[nH]c(-c3ccncc3)c2C1c1ccc2c(c1)OCO2 (centres undefined),-1,-5
CCn1c(SCC(=O)Nc2ccc(F)cc2)nnc1-c1ccco1,1,2
O=C(NC(c1ccc(F)cc1)c1cnccn1)C1CCN(Cc2cccc(C(F)(F)F)c2)CC1 (centres undefined),-11,-15
O=c1c2ccccc2c(-c2ccc(F)cc2)nn1CC(O)COCc1ccccc1 (centres undefined),1,2
C#CCOC(=O)N1CC2(CCCC2)NC(=O)C1CC(=O)O (centres undefined),20,17
CC(=O)Nc1cccc(C(=O)N2Cc3cnc(-c4ccccc4)nc3C2)c1,-3,-3
COc1ccc(-c2nnc(-c3ccccc3)o2)cc1S(=O)(=O)N1CCN(c2ccccc2)CC1,11,13
O=C(O)CCS(=O)(=O)c1ncn[nH]1,3,-2
Cc1nc(-n2cccc2)sc1C(=O)N1CC(=O)N(CCc2ccccc2)C(=O)C1,-3,-4
OCC1(CCOc2ccccc2)CCN(c2ccc3ccccc3n2)CC1,-1,2
Cc1nc2ccccc2nc1N1CCN(C(=O)C(C)Cl)CC1 (centres undefined),-12,-15
Cn1nnc2c(NCc3ccccc3Cl)ncnc21,15,6
CCOc1ccc(-c2cnc(COCc3ccccc3)[nH]2)cc1,-2,-3
COCC(C)NC(=O)c1ccc(CSc2ccccc2)o1 (centres undefined),7,1
O=C(c1ccc(C#Cc2ccccc2)cc1)N1CCN(Cc2cc(=O)n3ccsc3n2)CC1,0,3
O=C1c2c(O)ccc([N+](=O)[O-])c2C(=O)c2c(O)ccc([N+](=O)[O-])c21,-2,-6
O=c1c2ccccc2cnn1CN1CCN(S(=O)(=O)c2ccc(F)cc2)CC1,1,1
CCc1ccc(S(=O)(=O)NCCn2nc(-c3cccs3)ccc2=O)s1,4,2
COc1ccc(NC(=O)C2=NN(c3cccc(C)c3)C(=O)CC2)cn1,-1,-4
Cc1ccccc1-n1c(-c2ccc(Cl)cc2)cc(C(=O)N2CCN(C(=O)C(C)(C)CCl)CC2)c1C,16,22
CCCOC(=O)C1C2C=CC3(CN(CC4CCCO4)C(=O)C13)O2 (centres undefined),-1,-3
CCOC(=O)[C@@H]1CN(C(=O)c2cc3ccccc3s2)[C@H]2c3ccccc3O[C@@H]12,3,3
COc1ccccc1C(=O)N1CCOC(c2ccccc2)C1 (centres undefined),-15,-5

# 2 entries from above, as labelled records:
> O=c1c2ccccc2cnn1CN1CCN(S(=O)(=O)c2ccc(F)cc2)CC1
  NPYLR7 agonist: 1; NPYLR7 agonist max-min: 1

> Cn1nnc2c(NCc3ccccc3Cl)ncnc21
  NPYLR7 agonist: 15; NPYLR7 agonist max-min: 6

# The listing continues.
SMILES,NPYLR7 agonist,NPYLR7 agonist max-min
COc1ccc(Cl)cc1NC(=O)C(=O)NCC(c1cccn1C)N1CCCC1 (centres undefined),-7,-9
O=C(N1CCc2nc[nH]c2C1)C1(Oc2ccc(Cl)cc2)CCNCC1,-6,-9
O=C(Cn1nnnc1CN1CCOCC1)N1CCN(C2CCc3ccccc3C2)CC1 (centres undefined),5&9,2&4
COc1cccc(C(=O)NCc2ccc3c(c2)cc(C)n3C)c1,1,1
CCCCCCNC(=O)c1ccc(CSc2nc(Cl)cc(N(C)Cc3ccccc3)n2)cc1,-6,0
COc1cn(CC(=O)N2CCc3ccccc32)c(CSc2nncn2C)cc1=O,-4,-7
Cc1ccc(-c2nc3scc(CCNS(=O)(=O)c4cc(C)ccc4C)n3n2)cc1,3,2
COc1cccc(CC(=O)N2CCC(NC(=O)C3CC=CCC3)CC2)c1 (centres undefined),-5,-6
CC(=O)Oc1cc2oc(=O)c(Cl)c(C)c2cc1Cl,-1,-3

# By substructure: the compounds so far containing a CF3 group.
SMILES,NPYLR7 agonist,NPYLR7 agonist max-min
CCn1cc(Br)cc1C(=O)N(C)CC(F)(F)F,-1,1
Cc1cccn2c(CNCc3ccccc3OC(F)(F)F)c(C(=O)N3CCCCC3)nc12,3,4
O=C(NCc1ccccn1)c1cnn(-c2ccccc2)c1C(F)(F)F,5,7
COC(=O)c1cccn1C1CCN(C(=O)Cc2ccc(C(F)(F)F)cc2)CC1,5,3
CCC1C(=O)NCCN1C(=O)C1CC1c1ccccc1C(F)(F)F (centres undefined),5,0
O=S(=O)(Nc1ccccc1-c1nnc2n1CCCCC2)c1cccc(C(F)(F)F)c1,7,7
CC(C)(C)NC(=O)Cn1c(C(F)(F)F)nc2ccccc21,6,8
CC1c2cccn2CCN1C(=O)CC(O)(c1nccn1C)C(F)(F)F (centres undefined),1,0
CCc1noc(CN(C)C(=O)/C=C/c2ccccc2OC(F)(F)F)n1,11,5
Cc1cc(NC=C(Cl)C(=O)C(F)(F)F)n[nH]1,3,48
CN(C)CCn1c2c(c(SCC(=O)Nc3cccc(C(F)(F)F)c3)nc1=O)CCC2,-4,-9
CN(C)CCCOc1ccc(-c2nnc3ccc(-c4cccc(C(F)(F)F)c4)cn23)cc1,9,-3
Cc1csc(CNC(=O)c2coc(COc3cccc(C(F)(F)F)c3)n2)n1,-2,-6
O=C(NC(c1ccc(F)cc1)c1cnccn1)C1CCN(Cc2cccc(C(F)(F)F)c2)CC1 (centres undefined),-11,-15
